NOMO-1 viab = STK33 inhibitor candidate reducing NOMO-1 cell viability; AID 2330; NOMO-1 AML viability, CellTiter-Glo luminescence, 72 h; 7.5% of 37,000 active; inhibition, % (concentration not given with the values);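 active = most replicates above 80%; inconclusive = exactly half above 80%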;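 note: wells of about 30 µL received 25 nL stock; 0% = median of vehicle wells and 100% = reference inhibitor level; the first replicate is given; inactives centre near 10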
* = called active by the depositor; ? = inconclusive.

SMILES | NOMO-1 viab
COc1ccc(S(=O)(=O)N(C)C[C@@H]2Oc3ccc(NC(=O)NC(C)C)cc3CC(=O)N([C@H](C)CO)C[C@@H]2C)cc1 | 13.5
C=C1CCC(C)C(C)(CCC2=CC(=O)OC2O)C/C=C\C=C/1C(=O)O (stereo unspecified) | 1.2
CC1CCCC(C)N1NC(=O)c1ccc(Cl)c(S(N)(=O)=O)c1 (stereo unspecified) | 5.1
Cn1nc(CC(=O)Nc2ccc(OC(=O)c3ccccc3)cc2)c2ccccc2c1=O | 29.3
C[C@@H]1CCCCO[C@H](CN(C)Cc2ccc3c(c2)OCO3)[C@@H](C)CN([C@H](C)CO)C(=O)c2cc(NC(=O)Nc3cccc4ccccc34)ccc2O1 | 78.0
C[C@H](CO)N1C[C@H](C)[C@H](CN(C)Cc2ccc(C(=O)Nc3ccccc3N)cc2)Oc2ccc(N(C)C)cc2CC1=O | 141.1*
COc1ccc(NC(=O)N(C)C[C@@H]2Oc3ccc(NC(=O)Nc4cccc5ccccc45)cc3CC(=O)N([C@H](C)CO)C[C@@H]2C)cc1 | 11.3
O=C(Cn1nc(-c2cccc([N+](=O)[O-])c2)c2ccccc2c1=O)Nc1cccc(Cl)c1 | 23.7
COc1ccc(CN(C)C[C@@H]2Oc3ccc(NS(=O)(=O)c4ccc(OC)cc4)cc3CC(=O)N([C@H](C)CO)C[C@H]2C)cc1 | 11.1
C[C@@H]1CN([C@@H](C)CO)C(=O)c2cccc(NS(=O)(=O)c3ccc(F)cc3)c2O[C@H]1CN(C)C(=O)Nc1ccc(C(F)(F)F)cc1 | 2.0
O=C(CSc1nnnn1-c1ccccc1)Nc1ccc(Cl)c(C(=O)O)c1 | 21.3
O=C(CSc1nc(-c2ccccc2)cc(=O)[nH]1)Nc1cccc(Cl)c1Cl | -11.3
CCOC(=O)c1ccccc1NC(=O)COc1ccccc1Br | -10.0
Cc1nn2c3ccccc3n(C)c2c1C(=O)CN1CCOCC1 | 11.9
Cc1ccc(S(=O)(=O)Nc2cccc3c2O[C@@H](CN(C)C(=O)Nc2ccccc2)[C@H](C)CN([C@H](C)CO)C3=O)cc1 | 8.0
COc1ccc(NC(=O)N(C)C[C@@H]2Oc3c(NC(=O)Nc4cccc5ccccc45)cccc3C(=O)N([C@@H](C)CO)C[C@H]2C)cc1 | 33.8
CC(C)N(Cc1nc(-c2ccc(Cl)cc2)no1)S(=O)(=O)c1cccc([N+](=O)[O-])c1 | 7.3
C[C@H](CO)N1C[C@H](C)[C@H](CN(C)C(=O)NC2CCCCC2)Oc2ccc(NC(=O)CCN3CCOCC3)cc2C1=O | 0.8
COc1ccc(NC(=O)N(C)C[C@H]2Oc3ccc(NC(=O)Nc4ccccc4)cc3CC(=O)N([C@@H](C)CO)C[C@@H]2C)cc1 | -13.6
CCCc1cc(=O)oc2cc(OCc3cc(C(=O)O)oc3C)ccc12 | -21.6
Cc1cc(SCC(=O)Nc2cccc(Br)c2)nc2c(C)cccc12 | 2.8
COc1ccc(S(=O)(=O)Nc2cccc3c2O[C@@H](CN(C)S(=O)(=O)c2ccccc2)[C@@H](C)CN([C@H](C)CO)C3=O)cc1 | 6.9
C[C@H](CO)N1C[C@H](C)[C@@H](CN(C)CC2CC2)Oc2c(NS(=O)(=O)c3ccccc3)cccc2C1=O | -12.7
Cc1ccc(S(=O)(=O)N(C)C[C@@H]2Oc3c(cccc3N(C)C)C(=O)N([C@@H](C)CO)C[C@H]2C)cc1 | 8.4
Cc1cc2c(c(=O)n1CCN(C)C)C(c1ccncc1)C(C#N)=C(N)O2 (stereo unspecified) | 13.3
More records
SMILES | NOMO-1 viab
CCOC(=O)c1c(NC(=O)c2cccc(S(=O)(=O)N3CCCCCC3)c2)sc2c1CCC2 | 34.7
C[C@H]1CN([C@@H](C)CO)C(=O)Cc2cc(NS(=O)(=O)c3cccs3)ccc2O[C@@H]1CN(C)S(=O)(=O)c1ccc(Cl)cc1 | -4.5
C[C@@H]1CN([C@H](C)CO)C(=O)c2cccc(NS(=O)(=O)c3ccc(Cl)cc3)c2O[C@@H]1CN(C)S(=O)(=O)c1cn(C)cn1 | 3.1
COc1ccc(S(=O)(=O)Nc2ccc3c(c2)CC(=O)N([C@H](C)CO)C[C@@H](C)[C@@H](CN(C)C(=O)Nc2c(C)noc2C)O3)cc1 | 11.0
C[C@@H]1CCCCO[C@H](CN(C)C(=O)CCCN(C)C)[C@@H](C)CN([C@H](C)CO)C(=O)c2cc(NC(=O)Nc3ccc(F)cc3)ccc2O1 | -15.5
O=C(CNS(=O)(=O)c1cccc(C(F)(F)F)c1)Nc1ccccc1F | -20.1
CC(=O)O[C@H]1CC[C@@]2(C)C(CC[C@]3(C)C2C(=O)C=C2C4[C@@H](C)[C@H](C)CC[C@]4(C(=O)O)CC[C@]23C)C1(C)C (stereo partly specified) | 7.5
Cc1noc(C)c1NC(=O)N(C)C[C@@H]1Oc2c(NC(=O)c3ccc(-c4nccs4)cc3)cccc2C(=O)N([C@@H](C)CO)C[C@H]1C | -18.2
CNC[C@H]1Oc2ccc(NC(=O)C3CC3)cc2C(=O)N([C@@H](C)CO)C[C@@H]1C | 9.0
CCc1ccc(OCC(=O)Nc2ccc(-c3nc4ccccc4s3)c(O)c2)cc1 | ?
C[C@@H]1CN([C@@H](C)CO)C(=O)c2cccc(NS(=O)(=O)c3cccs3)c2O[C@@H]1CN(C)CC1CCCCC1 | 29.9
O=C(CSc1nc2ccccc2c(=O)[nH]1)Nc1ccc(F)c(Cl)c1 | 2.8
COCCN1C(=O)/C(=C/c2cc(C)n(-c3ccncc3)c2C)C(=O)N(c2ccccc2)C1=O | -19.5
Cn1c(=O)c2c(nc(NCc3cccnc3)n2Cc2ccc(F)cc2)n(C)c1=O | 12.1
C[C@@H]1CN([C@H](C)CO)C(=O)c2cc(NC(=O)Nc3cccc4ccccc34)ccc2O[C@H]1CN(C)Cc1ccc(C(=O)O)cc1 | 15.7
CNC[C@@H]1Oc2ccc(NS(=O)(=O)c3cccs3)cc2C(=O)N([C@@H](C)CO)C[C@H]1C | -15.2
CCc1c(C)nc(SCC(=O)Nc2ccc(C(=O)OC)cc2)[nH]c1=O | 16.8
COC(=O)c1ccc(NC(=O)CN(c2ccc(C)c(Cl)c2)S(C)(=O)=O)cc1 | -3.1
C[C@H](CO)N1C[C@H](C)[C@@H](CN(C)S(=O)(=O)c2ccc(Cl)cc2)Oc2ccc(NC(=O)Cc3cn(C)c4ccccc34)cc2C1=O | 41.2
CCOC(=O)c1cnc2cc(C(F)(F)F)ccc2c1N1CC(C)CC(C)C1 (stereo unspecified) | 51.3
C[C@@H]1CN([C@@H](C)CO)C(=O)c2cc(NC(=O)C3CCCCC3)ccc2O[C@H]1CN(C)S(=O)(=O)c1ccccc1 | 30.4
C[C@H]1CN([C@@H](C)CO)C(=O)c2cc(NC(=O)Cc3ccccc3)ccc2O[C@H]1CN(C)Cc1ccc(C(=O)O)cc1 | 12.9
C[C@@H]1CN([C@@H](C)CO)C(=O)c2cc(NC(=O)Nc3ccc(C(F)(F)F)cc3)ccc2O[C@H]1CN(C)Cc1ccc(Oc2ccccc2)cc1 | 118.4*
C[C@@H]1CN([C@@H](C)CO)C(=O)c2cccc(NC(=O)Nc3ccc(F)cc3)c2O[C@H]1CN(C)C(=O)Nc1ccc(F)cc1 | -5.4
COc1ccc(NC(=O)Nc2ccc3c(c2)C(=O)N([C@H](C)CO)C[C@H](C)[C@H](CN(C)C(=O)NC(C)C)OCCCC[C@@H](C)O3)cc1 | 21.1
(continued)
SMILES | NOMO-1 viab
Cc1noc(C)c1NC(=O)Nc1ccc2c(c1)CC(=O)N([C@@H](C)CO)C[C@H](C)[C@@H](CN(C)Cc1ccncc1)O2 | -9.2
COc1ccc(OC)c(NC(=O)CN(c2ccc(Br)c(C)c2)S(C)(=O)=O)c1 | 30.5
C[C@@H]1CN([C@@H](C)CO)C(=O)c2cccc(NC(=O)C3CCCCC3)c2O[C@@H]1CN(C)Cc1ccc(C(=O)Nc2ccccc2N)cc1 | 126.6*
COc1ccc(S(=O)(=O)Nc2cccc3c2O[C@@H](CN(C)C(=O)Nc2cccc4ccccc24)[C@H](C)CN([C@@H](C)CO)C3=O)cc1 | 18.7
Cc1ccc(S(=O)(=O)Nc2cccc3c2O[C@@H](CN(C)Cc2ccc(Oc4ccccc4)cc2)[C@@H](C)CN([C@@H](C)CO)C3=O)cc1 | 58.7
Cc1noc(C)c1NC(=O)N(C)C[C@@H]1Oc2ccc(NS(=O)(=O)c3cccs3)cc2CC(=O)N([C@H](C)CO)C[C@H]1C | 3.8
C[C@H]1CN([C@@H](C)CO)C(=O)Cc2cc(NC(=O)Cn3cnnn3)ccc2O[C@@H]1CN(C)S(=O)(=O)c1cccs1 | -1.9
C[C@@H]1CN([C@@H](C)CO)C(=O)c2cc(NS(=O)(=O)c3ccccc3)ccc2O[C@H]1CN(C)S(=O)(=O)c1ccccc1 | -2.1
COc1ccccc1N1CC(C(=O)Nc2cccc(C(=O)O)c2)CC1=O (stereo unspecified) | -3.9
Cc1c(C#N)c(Sc2cccc(C(F)(F)F)c2)nc2ccccc12 | 20.1
COc1ccc(NC(=O)CNS(=O)(=O)c2ccc(C)cc2)cc1Cl | -1.7
CN(C)S(=O)(=O)N(CC(=O)Nc1ccccc1F)c1ccccc1 | -8.7
C[C@@H]1CCCCO[C@@H](CN(C)C(=O)CCCN(C)C)[C@@H](C)CN([C@H](C)CO)C(=O)c2cc(NS(=O)(=O)c3cccs3)ccc2O1 | -2.4
C/C(=C/CCC(CO)C1CCC2(C)C3CCC4C(C)(C)C(OC5OC(CO)C(O)C(O)C5O)CCC45CC35CCC12C)COC1OC(COC2OC(CO)C(O)C(O)C2O)C(O)C(O)C1O (stereo unspecified) | -1.9
CCC(C)C(O)C(C)(O)/C=C/C1=CC2=C(Cl)C(=O)C(C)(O)C(O)C2CO1 (stereo unspecified) | 12.3
C[C@@H]1CN([C@@H](C)CO)C(=O)c2cc(NC(=O)c3ccncc3)ccc2O[C@H]1CN(C)S(=O)(=O)c1cccs1 | -2.9
C[C@@H]1CN([C@@H](C)CO)C(=O)c2cccc(NC(=O)Nc3ccc(F)cc3)c2O[C@H]1CN(C)CC1CCCCC1 | 76.2
COc1ccc(NC(=O)N(C)C[C@@H]2Oc3ccc(NC(=O)Cc4ccccc4)cc3CC(=O)N([C@@H](C)CO)C[C@@H]2C)cc1 | -8.0
O=C(COc1ccc(Cl)cc1Cl)Nc1ccc2oc(-c3ccncc3)nc2c1 | -4.6
CC(C(=O)O)N(c1ccc(Cl)cc1)S(C)(=O)=O (stereo unspecified) | -13.8
Cc1ccc(S(=O)(=O)Nc2ccc3c(c2)C(=O)N([C@@H](C)CO)C[C@H](C)[C@H](CN(C)CC2CCCCC2)O3)cc1 | 39.3
C[C@@H]1CN([C@H](C)CO)C(=O)Cc2cc(NC(=O)C3CC3)ccc2O[C@H]1CN(C)C(=O)NC1CCCCC1 | -21.6

Structural class, the compounds so far containing a thiophene ring, fused or not (8)
SMILES | NOMO-1 viab
CCOC(=O)c1c(NC(=O)c2cccc(S(=O)(=O)N3CCCCCC3)c2)sc2c1CCC2 | 34.7
C[C@H]1CN([C@@H](C)CO)C(=O)Cc2cc(NS(=O)(=O)c3cccs3)ccc2O[C@@H]1CN(C)S(=O)(=O)c1ccc(Cl)cc1 | -4.5
C[C@@H]1CN([C@@H](C)CO)C(=O)c2cccc(NS(=O)(=O)c3cccs3)c2O[C@@H]1CN(C)CC1CCCCC1 | 29.9
CNC[C@@H]1Oc2ccc(NS(=O)(=O)c3cccs3)cc2C(=O)N([C@@H](C)CO)C[C@H]1C | -15.2
Cc1noc(C)c1NC(=O)N(C)C[C@@H]1Oc2ccc(NS(=O)(=O)c3cccs3)cc2CC(=O)N([C@H](C)CO)C[C@H]1C | 3.8
C[C@H]1CN([C@@H](C)CO)C(=O)Cc2cc(NC(=O)Cn3cnnn3)ccc2O[C@@H]1CN(C)S(=O)(=O)c1cccs1 | -1.9
C[C@@H]1CCCCO[C@@H](CN(C)C(=O)CCCN(C)C)[C@@H](C)CN([C@H](C)CO)C(=O)c2cc(NS(=O)(=O)c3cccs3)ccc2O1 | -2.4
C[C@@H]1CN([C@@H](C)CO)C(=O)c2cc(NC(=O)c3ccncc3)ccc2O[C@H]1CN(C)S(=O)(=O)c1cccs1 | -2.9

Bioassay records (PubChem)

These rows are one share of the data; the hit share may differ from the screen's.
